# Screens from PubChem.
# PINK1 expr mod: modulators of PINK1 expression; Potency, µM (series often up to 76.6 µM), for inactives: at the highest dose activation (PINK1 increase), actives largely listed as activators; 0.2% of 410,000 active; AID 624263; PINK1 immunofluorescence, high-content cytometry, 24 h; active = well fitted activation curve with a large enough effect; inconclusive = small, poorly fitted or top-dose-only effect; inactive = flat fitted curve, though single readings scatter; cell line not stated here;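 note: potency is the fitted concentration of half-maximal effect; % of control where 0% means no effect; nearly all actives have a fitted effect of over 65% in size; a mitochondrial uncoupler was the plate control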
#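 Decision-based qHTS: stable cells, 24 h exposure to five compound concentrations, CCCP as control. Fixed cells stained for PINK1 plus nuclear, mitochondrial and cell markers, cytometer read.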
# TRPML1 agonist: activates the human TRPML1 channel | 0.12% of 410,000 active | AID 624414 | activation, % (concentration not given with the values) | TRPML1-expressing cells, Ca2+ dye fluorescence, FDSS; host cell line not named in the record; reference of the full effect not given here; in the data active = activation above about 50%; inconclusive = about 30% to 50%; inactive = below about 30%; note: 0% is about no effect; the text of the record puts the active cut at 80%
# Target sequence (Q9GZU1 whole entry, looked up): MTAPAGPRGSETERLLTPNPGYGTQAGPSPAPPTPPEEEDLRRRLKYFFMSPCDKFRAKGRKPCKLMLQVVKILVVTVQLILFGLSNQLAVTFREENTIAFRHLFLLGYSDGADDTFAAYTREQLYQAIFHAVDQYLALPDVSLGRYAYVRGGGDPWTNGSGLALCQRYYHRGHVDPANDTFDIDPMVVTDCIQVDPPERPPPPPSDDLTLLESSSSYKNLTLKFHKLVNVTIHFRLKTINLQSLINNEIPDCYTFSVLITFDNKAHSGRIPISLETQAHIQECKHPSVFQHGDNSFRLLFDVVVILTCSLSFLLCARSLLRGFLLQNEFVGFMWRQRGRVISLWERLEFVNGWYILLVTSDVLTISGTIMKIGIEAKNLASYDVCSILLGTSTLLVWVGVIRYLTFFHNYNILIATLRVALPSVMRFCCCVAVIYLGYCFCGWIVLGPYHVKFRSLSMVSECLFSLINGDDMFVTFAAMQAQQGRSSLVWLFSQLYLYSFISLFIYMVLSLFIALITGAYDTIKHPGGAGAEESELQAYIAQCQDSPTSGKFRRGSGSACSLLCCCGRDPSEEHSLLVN
#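 Tet-induced TRPML1-DL cells, 1,500 per well, cultured overnight, were loaded with a no-wash Ca2+ dye for 45–90 min. Calcium fluorescence was recorded on the FDSS for 110 s after compound addition, before the EC80 agonist (4 uM 54-4) was added.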
# Six1-Eya2 inh: blocks human Six1 binding to Eya2; AID 651725; AlphaScreen GST-Six1/His-Eya2 binding, biochemical; stronger effect = lower value; control for the full effect not named in the record; 0.56% of 360,000 active; activity change, % (test concentration not listed); in the data active = activity change below about -65%; inconclusive = about -30% to -65%; inactive = above about -30%; note: % is set by controls: 0 for no effect and ±100 for the full control effect; compound concentration not given in the record
#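 AlphaScreen with GST-Six1 and His-Eya2 (5X mix: 250 nM and 500 nM), glutathione donor and nickel acceptor beads; buffer 50 mM Tris pH 8.0, 300 mM NaCl, 1 mM TCEP; 1 h at 37 C in the dark.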
# TRPML1 blocker: inhibitors of human TRPML1 channel | Q9GZU1 | TRPML1-inducible cells, Ca2+ dye fluorescence, FDSS; stronger effect = lower value; inhibition of EC80 agonist-evoked calcium signal | activity change, negative = inhibition, % (concentration not given with the values) | 0.02% of 390,000 active | AID 624415; in the data active means activity change below about -50%; inconclusive means about -30% to -50%; inactive means above about -30%;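 note: stimulus is agonist 54-4 at its EC80 concentration; % is set by controls: 0 for no effect and ±100 for the full control effect; compound concentration not given in the record; the text of the record puts the active cut at -80%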
#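 TRPML1-DL cells, Tet-induced overnight (~16 h, 37 °C) at 1,500 cells/well, were loaded with Ca8 no-wash dye plus quencher for 45-90 min at room temperature. Compounds were pinned during FDSS kinetic reading; agonist 54-4 at EC80 (4 uM final) then added.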
# D2 ag: activates the human D2 dopamine receptor; P14416; DiscoveRx PathHunter D2 beta-arrestin, luminescence, 90 min; 100% = 57 uM dopamine signal; activation, % (test concentration not listed); 0.084% of 360,000 active; AID 624465; in the data active = activation above about 40%; inconclusive = about 15% to 40%; inactive = below about 15%; note: compound concentration not given in the record; the text of the record calls up to 30% inactive
# Target sequence (P14416 whole entry, looked up): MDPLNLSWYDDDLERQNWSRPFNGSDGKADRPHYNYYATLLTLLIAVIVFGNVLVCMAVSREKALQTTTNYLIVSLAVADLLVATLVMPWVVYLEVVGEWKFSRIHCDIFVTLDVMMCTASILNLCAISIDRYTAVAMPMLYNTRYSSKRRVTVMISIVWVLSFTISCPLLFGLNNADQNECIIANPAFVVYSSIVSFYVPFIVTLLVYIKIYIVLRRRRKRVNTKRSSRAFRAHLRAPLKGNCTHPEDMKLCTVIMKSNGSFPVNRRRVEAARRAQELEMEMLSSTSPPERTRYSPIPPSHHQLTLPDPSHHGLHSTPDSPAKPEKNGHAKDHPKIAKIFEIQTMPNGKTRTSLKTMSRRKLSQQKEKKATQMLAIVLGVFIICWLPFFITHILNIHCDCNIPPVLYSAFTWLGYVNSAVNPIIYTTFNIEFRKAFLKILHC
#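 DiscoveRx PathHunter D2 beta-arrestin cells (2,100/well) attached overnight, then compound-stimulated 90 min at 37 C in HBSS/10 mM HEPES/0.1% Tween-20 buffer; beta-galactosidase complementation read by luminescence after 1 h at ambient temperature. Dopamine 57 uM final (EC100) as control.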
# CtBP-E1A inh: inhibitors of CtBP/E1A interaction; AlphaScreen GST-E1A/His-CtBP binding, 1536-well; stronger effect = lower value; control for the full effect not named in the record; activity change, % (concentration not given with the values); 0.49% of 340,000 active; in the data active means activity change below about -65%; inconclusive means about -30% to -65%; inactive means above about -30%; note: % is set by controls: 0 for no effect and ±100 for the full control effect
#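 Steps: dispense buffer (Tris pH 8.0, NaCl 300 mM, TCEP 1 mM, BSA, Tween 20); add 5X protein mix (GST-E1A, His-CtBP, 125 nM each); pin 23 nL compound; 2 h at 37 °C, dark; add 5X beads (50 ug/mL); 1 h; read.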
# The depositor's hits bear a star; ? = inconclusive; · = not tested or not shown; [ ] = remark or other dose.
SMILES,PINK1 expr mod,TRPML1 agonist,Six1-Eya2 inh,TRPML1 blocker,D2 ag,CtBP-E1A inh
Cc1c(C(=O)O)sc(S(=O)(=O)N2CCN(C(=O)Cc3ccccc3)CC2)c1C(=O)O,0.5%,-0.5,-3,5,-2.0,10
CC(=O)c1cccc(NC(=O)CCn2nc(C)c(S(=O)(=O)N(C)C)c2C)c1,-0.6%,2.2,·,-20,·,·
CCc1cccc2[nH]c3cc([N+](=O)[O-])ccc3c12,2.3%,2.3,-2,19,-4.3,0
COc1ccc(OC)c(CCNc2ncnc3onc(-c4ccc(Cl)cc4)c23)c1,-4.4%,3.8,·,54,·,·
COc1ccc(C2=NOC(Cn3nc(-c4ccccc4)cc3C(=O)NCc3cccc(C(F)(F)F)c3)C2)cc1 (stereo not given),3.0%,-0.7,-1,6,1.2,-5
Cc1onc(-c2ccccc2Cl)c1C(=O)N(C)C1CCCCC1,2.9%,-0.3,19,-6,4.6,0
Cc1cc(C(=O)Nc2ccc(C(=O)O)cc2)c(-c2ccccc2)o1,1.6%,-0.3,-16,14,0.0,-1
Cc1ccc(S(=O)(=O)N(C)C[C@H]2Oc3cc(C#CC4CCCC4)ccc3S(=O)(=O)N([C@H](C)CO)C[C@H]2C)cc1,2.8%,1.4,-12,24,-6.6,1
CCC(NC(=O)c1cc(COc2c(F)cccc2F)on1)c1ccncc1 (stereo not given),-2.8%,0.4,-10,0,-2.1,23
CC1(C)C([N+](=O)[O-])C(c2ccc(O)cc2)NC(c2ccc(O)cc2)C1[N+](=O)[O-] (stereo not given),4.0%,4.2,-4,0,-3.1,2

# Brought forward from above: three compounds, then new ones.
SMILES,PINK1 expr mod,TRPML1 agonist,Six1-Eya2 inh,TRPML1 blocker,D2 ag,CtBP-E1A inh
Cc1ccc(S(=O)(=O)N(C)C[C@H]2Oc3cc(C#CC4CCCC4)ccc3S(=O)(=O)N([C@H](C)CO)C[C@H]2C)cc1,2.8%,1.4,-12,24,-6.6,1
CCC(NC(=O)c1cc(COc2c(F)cccc2F)on1)c1ccncc1 (stereo not given),-2.8%,0.4,-10,0,-2.1,23
CC1(C)C([N+](=O)[O-])C(c2ccc(O)cc2)NC(c2ccc(O)cc2)C1[N+](=O)[O-] (stereo not given),4.0%,4.2,-4,0,-3.1,2
COc1ccc(/C=C/C(=O)N2CCOCC2)cc1OC,3.5%,0.2,2,5,-2.4,5
Oc1ccc2ccccc2c1/C=N/n1cnnc1,·,0.3,-2,-3,2.3,-1
Oc1ccc(/C=N/Nc2ncnc3c2ncn3Cc2ccccc2)cc1O,5.0%,0.5,?,-10,3.2,?
O=C(O)c1cccc(NS(=O)(=O)c2ccc(NC(=O)c3ccco3)cc2)c1,3.0%,-0.8,-6,6,-6.2,1
O=C1c2ccccc2C(O)(Cc2ccccc2)N1Cc1ccco1 (stereo not given),0.6%[38.3 µM],-0.7,-3,13,-0.1,1
O=C(CN1CCN(S(=O)(=O)c2ccc(Br)cc2)CC1)N/N=C/c1ccccc1C(=O)O,-0.2%,3.8,5,11,5.2,·
O=C(Nc1cccc(C(=O)O)c1)/C(=C\c1ccc2c(c1)OCO2)NC(=O)c1ccc(Br)o1,-1.1%,-1.0,0,-4,-1.1,-1
OCc1cccc(Nc2ncnc3sc4c(c23)CCCCC4)c1,-1.9%,2.3,-1,0,3.4,-3
CC(C)C(NS(=O)(=O)c1ccc(Br)s1)C(=O)O (stereo not given),1.2%,0.6,14,-9,-1.8,0
Cc1cccc(C(=O)N(Cc2ccc(C)o2)C2CCS(=O)(=O)C2)c1 (stereo not given),3.6%,-0.1,1,-1,1.0,-3
O=C1c2ccccc2NC(c2ccncc2)N1c1ccccn1 (stereo not given),-0.3%,1.2,11,-2,1.5,7
CC(=O)N=c1sc2ccccc2n1C,2.6%,-0.6,4,-4,-4.4,11
Cc1ccccc1OCCC(=O)OCC(=O)NC1CC1,1.0%,-0.2,5,-2,0.4,-1
COc1ccc(C(C(=O)NC2CCCC2)N(C(=O)c2ccco2)c2ccccc2C(C)=O)cc1OC (stereo not given),0.3%,-0.5,3,-18,-1.0,3
COc1ccc(CN(C)C(=O)C2CC(=O)N(c3ccc4c(c3)OCCO4)C2)c(OC)c1 (stereo not given),-0.1%,2.6,0,-9,-1.6,-21
COc1ccccc1-c1sc2ccccc2c1-c1ccccc1OC,1.8%,0.1,5,-4,-1.5,7
Cc1ccc(SC[C@H](CC(C)C)N2CCN(C)CCC2=O)cc1,-1.5%,1.1,-1,-3,-2.6,1
COc1cccc(C(=O)N2CCN(c3ccccn3)CC2)c1,-0.5%,0.0,9,-5,?,7
Cc1ccccc1C(=O)NC1CCN(Cc2nnnn2Cc2ccccc2)CC1,-1.2%[38.3 µM],-0.8,1,12,0.2,0
Cc1cccc(NC(=O)c2ccc(C(=O)Nc3cccc(C)c3C)cc2)c1C,2.8%,-0.2,·,42,·,·
COc1ccc(N(C(=O)COc2ccccc2)C2C=CS(=O)(=O)C2)cc1 (stereo not given),-1.4%[38.3 µM],-0.2,5,-7,-0.5,3
COc1cc(OC)c(OC)cc1CN1CCCC(C(=O)N2CCCC2)C1 (stereo not given),0.3%,-1.5,-3,19,1.2,0
O=C1CC(c2ccccc2)CC(O)=C1C=NCc1ccco1 (stereo not given),-2.2%[38.3 µM],-0.1,-3,4,-3.7,13
O=c1cc(-c2ccccc2Cl)c2c([nH]1)CCC2,-0.6%,-0.5,2,47,-0.4,1
Cc1nc2c(-c3ccc(F)cc3)c(C)nn2c(C)c1CCC(=O)NC(C)CCc1ccco1 (stereo not given),0.5%,-0.3,-18,-3,-3.4,-3
CCOc1ccccc1NC(=O)Cc1csc(COc2cccc(C)c2)n1,1.3%,0.3,·,11,·,·
COc1ccc(CNC(=O)C2CC(=O)N(c3ccc(OCC(=O)N4CCCCC4)cc3)C2)cc1 (stereo not given),-0.2%,-0.4,12,-13,-0.9,-1
O=C(C1CCCN(Cc2ccccc2Br)C1)N1CCCCC1 (stereo not given),-0.7%,-0.2,-3,9,-3.1,-1
CCN(CC)CCCNC(=O)Cn1cnc2sc(C)c(S(=O)(=O)N3CCC(C)CC3)c2c1=O,1.3%,0.1,3,-11,2.1,-17
CCOC(=O)c1c(-c2ccc(C)cc2C)csc1NC(=O)c1ccccc1Cl,0.5%,-0.5,·,-4,·,·
O=C(Cn1cc2c(n1)CCCCC2)N1CCc2ccccc2C1,2.0%,0.1,2,8,1.5,4
O=C(NCCS(=O)(=O)NCc1ccc2c(c1)OCO2)c1ccccc1,0.2%,-0.7,12,11,-1.4,-4
Cc1ccccc1CCNC(=O)c1ccc(Cl)c(S(=O)(=O)N2CC(C)OC(C)C2)c1 (stereo not given),22%,1.5,-1,16,5.9,-1
CC(=O)Nc1cc2c3c(cccc3c1)-c1ccccc1-2,?,0.0,12,6,0.1,14
NC(=O)c1ccccc1OCC(=O)Nc1ccc2c(c1)CCC2,0.3%,-0.6,-3,33,-3.0,·
COc1cc(Nc2ccn3nccc3n2)cc(OC)c1OC,-0.8%,-0.5,-16,·,2.5,-9
COc1ccccc1-n1cnnc1SCC(=O)N1CCOCC1,-0.6%,0.3,7,38,-2.6,6
O=C1CCC(C(=O)OCc2nnc(-c3ccc(Br)cc3)o2)=NN1,0.0%,1.0,4,-10,0.1,1
CCOC(=O)c1oc2ccc(S(=O)(=O)n3nc(-c4ccc(Br)cc4)cc3N)cc2c1C,-1.2%,0.5,·,7,·,·
O=C(CC1S/C(=N\S(=O)(=O)c2ccccc2)N(c2ccccc2)C1=O)Nc1ccc(F)cc1 (stereo not given),2.2%,0.0,-2,6,-2.1,0

# An excerpt from above with just D2 ag.
compound | D2 ag
NC(=O)c1ccccc1OCC(=O)Nc1ccc2c(c1)CCC2 | -3.0
COc1cc(Nc2ccn3nccc3n2)cc(OC)c1OC | 2.5
COc1ccccc1-n1cnnc1SCC(=O)N1CCOCC1 | -2.6
O=C1CCC(C(=O)OCc2nnc(-c3ccc(Br)cc3)o2)=NN1 | 0.1

# Continued:
SMILES,PINK1 expr mod,TRPML1 agonist,Six1-Eya2 inh,TRPML1 blocker,D2 ag,CtBP-E1A inh
COc1ncnc2c1ncn2CC1COC(C)(C)O1 (stereo not given),-0.3%,0.9,-7,30,0.7,-8
COc1ccc(C(=O)NCC2OCCc3ccccc32)c(O)c1 (stereo not given),0.9%,0.1,8,-1,-0.9,1
COc1ccccc1N(C)S(=O)(=O)c1ccc(C(=O)N2CCC(C(N)=O)CC2)cc1,-4.8%,-0.4,-10,6,-2.2,-20
COc1ccc2nc(N3C(=O)C(O)=C(C(=O)c4ccco4)C3c3ccc(OC)c(OC)c3)sc2c1 (stereo not given),0.0%,-0.7,-3,-12,-2.4,-1
O=C(Nc1nc(-c2ccncc2)cs1)c1ccc(S(=O)(=O)N2CCOCC2)cc1,?,0.1,0,-8,4.1,2
CSCC[C@H](NC(=O)NC1CCCC1)C(=O)O,0.9%,1.0,-4,-7,-1.9,4
COc1cc2c(cc1OC)C(Cc1ccccc1[N+](=O)[O-])=NCC2,-3.8%,1.3,-16,12,-1.0,8
CCOC(=O)c1sc(NC(=O)CN2C(=O)C3CC=CCC3C2=O)nc1C (stereo not given),1.2%,0.0,5,-6,-2.8,0
COC(=O)c1c(C)oc(C)c1S(=O)(=O)NCc1ccc(Cl)cc1Cl,0.4%,2.5,-16,1,-5.1,-22
COc1ccccc1CNC(=O)CC1N=C2c3ccccc3N=C(SCC(=O)Nc3ccc(F)cc3)N2C1=O (stereo not given),2.7%,0.2,·,-4,·,·
O=C(Nc1ccnn1C1CCN(C2CCCCC2)CC1)c1ccccc1,-0.1%,-0.5,-1,7,-4.1,-19
C=C(C(=O)c1ccccc1)C(C(=C)C(=O)c1ccccc1)c1ccc(OC)cc1,5.4%,-0.9,3,-6,-6.2,·
O=C(Nc1ccon1)c1ccc2c(c1)OCO2,4.0%[38.3 µM],3.0,-1,12,-1.1,8
O=C(CC1C(=O)NCCN1CC1CCCCC1)NC1(c2ccccc2)CC1 (stereo not given),2.3%,-0.5,3,-4,-3.6,-11
CCC(C)(C)n1nnnc1C(c1cc2cc(OC)c(OC)cc2[nH]c1=O)N1CCc2ccccc21 (stereo not given),13%[38.3 µM],0.4,0,2,-2.7,3
CCC1Nc2ncnc(N3CCN(c4ccccc4)CC3)c2N(Cc2ccc(C)cc2)C1=O (stereo not given),0.4%,0.0,-17,-4,-15,-14
CN(Cc1ccccc1)C(=O)c1ccc(NC(=O)Cc2ccc([N+](=O)[O-])cc2)cc1,1.0%,1.6,-12,20,-1.1,-6
COc1ccc(CNC(=O)c2cc3c(-c4ccccc4F)nn(C)c3s2)cc1,0.7%,-0.1,·,26,·,·
CCOc1ccc(C2C(C(=O)c3cccs3)=C(O)C(=O)N2CCN2CCOCC2)cc1 (stereo not given),1.5%,0.9,2,8,0.6,·

# Copied from the list:
# CtBP-E1A inh result of O=C(CC1C(=O)NCCN1CC1CCCCC1)NC1(c2ccccc2)CC1 (stereo not given) is entered as -11
# PINK1 expr mod result of CN(Cc1ccccc1)C(=O)c1ccc(NC(=O)Cc2ccc([N+](=O)[O-])cc2)cc1 is entered as 1.0%
